Bioassay records as filed in PubChem BioAssay.
HNF4A DNA FP: change in binding of human HNF4 alpha to DNA | 0.3% of 360,000 active | AID 1224865 | P41235 | HNF4a-FITC DNA binding, fluorescence polarization, 1 h | activity change, % at 10 µM; in the data active means activity change above about 30%, passing the limit was not always enough;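 further: controls were the assay level and a saturating level of protein; the project sought stronger binding though the title names inhibitors; some compounds called inactive have numbers as strong as hits; positive values seem to mean higher polarization but the record does not say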
Target sequence (P41235 whole entry, looked up): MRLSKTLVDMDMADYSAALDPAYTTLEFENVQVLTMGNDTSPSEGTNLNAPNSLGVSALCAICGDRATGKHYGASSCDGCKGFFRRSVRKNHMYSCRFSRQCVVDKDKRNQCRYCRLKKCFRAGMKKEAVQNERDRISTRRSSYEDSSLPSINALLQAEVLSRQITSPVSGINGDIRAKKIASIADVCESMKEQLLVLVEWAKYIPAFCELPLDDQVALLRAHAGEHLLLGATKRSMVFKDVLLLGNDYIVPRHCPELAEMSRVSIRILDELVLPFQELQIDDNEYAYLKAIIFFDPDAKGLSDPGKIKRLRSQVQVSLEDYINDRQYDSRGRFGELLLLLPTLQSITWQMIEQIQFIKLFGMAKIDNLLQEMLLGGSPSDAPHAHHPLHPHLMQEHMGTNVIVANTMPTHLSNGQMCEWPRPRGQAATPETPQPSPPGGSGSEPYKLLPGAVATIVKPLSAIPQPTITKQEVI
MLL AF4-AF9 inh: blocks AF4 peptide binding to human AF9 | 0.47% of 350,000 active | P42568 | AlphaScreen, biotin-AF4 peptide binding to FLAG-AF9 | inhibition, % at 10 µM;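 active means every replicate reaching a set inhibition limit, whatever the replicate mean, cut at about 25% in these data; inconclusive means mean inhibition reaches that limit but some replicates miss it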;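 further: 0% = plate neutral control median and 100% = total signal loss; the record names both 10 and 1 µM as test concentration; the first replicate is given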
Target sequence (P42568 whole entry, looked up): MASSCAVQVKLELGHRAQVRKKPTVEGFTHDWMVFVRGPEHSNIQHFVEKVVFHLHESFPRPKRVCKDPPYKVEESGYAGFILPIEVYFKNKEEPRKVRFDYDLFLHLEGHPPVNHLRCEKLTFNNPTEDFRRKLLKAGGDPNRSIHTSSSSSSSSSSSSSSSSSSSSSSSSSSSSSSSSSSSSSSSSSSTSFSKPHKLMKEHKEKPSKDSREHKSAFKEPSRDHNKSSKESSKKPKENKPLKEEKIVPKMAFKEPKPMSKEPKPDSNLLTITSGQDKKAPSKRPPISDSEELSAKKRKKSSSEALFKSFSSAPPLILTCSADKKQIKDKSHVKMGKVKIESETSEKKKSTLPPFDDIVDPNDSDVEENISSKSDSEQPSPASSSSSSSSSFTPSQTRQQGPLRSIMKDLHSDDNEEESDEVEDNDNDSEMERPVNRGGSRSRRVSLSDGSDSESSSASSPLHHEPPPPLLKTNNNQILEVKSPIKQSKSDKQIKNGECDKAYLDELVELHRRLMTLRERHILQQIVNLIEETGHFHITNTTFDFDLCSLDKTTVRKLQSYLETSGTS
Vif TR-FRET: inhibitors of Vif binding to APOBEC3G peptide, primary screen, biochemical, TR-FRET, GST-Vif 1-94, biotin-A3G peptide, dose response retest (AID 1117319) | TR-FRET GST-Vif / biotin-A3G peptide binding; higher % means a stronger effect; test concentration not given here; strong numbers were not always called active | inhibition, %; hits with a dose series show IC50 in µM | 0.57% of 260,000 active;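 active means above the screen mean plus three standard deviations and confirmed in dose response; inconclusive means results disagree or hit not tested in dose response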;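 further: Vif residues 1-94 fused to GST binding biotinylated APOBEC3G peptide 110-148; 0% = full assay without inhibitor and 100% = GST in place of GST-Vif; retest series ran down from 100 µM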
RanGTP-Imp inh: disruptors of Ran-importin-beta complex formation – biochemical, FRET, CFP-Ran, YFP-importin-beta, homogeneous, primary screen. cell-free CFP-Ran/YFP-importin-beta FRET ratio. inhibition, % (concentration not given with the values). 1.1% of 300,000 active. AID 2216;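 active means most replicates above 15%; inconclusive means exactly half above 15%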;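 further: 0% = DMSO wells and 100% = Ran loaded with GDP instead of GTP; wells of about 40 µL received 100 nL stock; the first replicate is given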
UCH37 DUB inh: inhibitors of human deubiquitinating enzyme UCH37. Q9Y5K5. purified proteasome/UCH37, Ub-AMC cleavage fluorescence. inhibition, % (concentration not given with the values). 0.33% of 330,000 active;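 active means mean of two replicates above 20%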;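 further: 0% = compound-free wells with enzyme and 100% = wells lacking proteasome; stock transfer was 100 nL into about 20 µL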
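Material: Human UCH37 enzyme supplied as purified proteasome complex | Schedule: 30 min preincubation with enzyme, 25 min cleavage at room temperature | Detection: AMC fluorescence 355/460 nm | Measure: % inhibition of Ub-AMC cleavage fluorescence | Controls: Wells without proteasome as full block, compound-free enzyme plus substrate as uninhibited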
Ecoli growth: E. coli growth inhibition; OD600 absorbance (concentration not given with the values); Escherichia coli growth, OD600, 23 h; active compounds read low; 0.21% of 330,000 active;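 active means OD600 absorbance below the run mean of sample wells minus 3.6 SD, in any replicate, cut at about 0.56 in these data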;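 further: stock transfer was 300 nL into about 60 µL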
FGF22 binding: FGF22 (human) thermal shift binding. 1.5% of 340,000 active. calls only at 9.99 µM. recombinant FGF22 thermal shift, SYPRO orange fluorescence; percent of sucrose octasulfate shift, DMSO zero;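 active means melting point raised past a set limit in the mean and every replicate; inconclusive means no clear call; three in four hits are not shown here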
* = called active by the depositor; i = inactive; ? = inconclusive; / = not tested or not shown. Some of the compounds tested; the hit share may differ from the screen's.

smiles,HNF4A DNA FP,MLL AF4-AF9 inh,Vif TR-FRET,RanGTP-Imp inh,UCH37 DUB inh,Ecoli growth,FGF22 binding
CCc1ccc(N2CC(C(=O)NCc3ccco3)CC2=O)cc1 (stereo not drawn),-2.1,/,-1%,1.5,5.1,0.68,/
CCc1cccc2c(=O)c(C(=O)N3CCOCC3)c[nH]c12,5.2,/,10%,-1.1,6.0,0.7,/
COc1cccc(C2C3=C(CC(C)(C)CC3=O)Nc3n[nH]c(C)c32)c1 (stereo not drawn),1.5,0.2,-9%,-4.6,-248,0.66,i
COc1ccccc1OC(C)c1nnc(SCC(=O)Nc2c(C)n(C)n(-c3ccccc3)c2=O)n1-c1ccccc1 (stereo not drawn),2.0,0.4,0%,-1.4,1.6,0.72,i
Cc1ccc(/C=N/Nc2cc(C)nc(N3CCOCC3)n2)cc1,-7.7,-4.5,0%,-3.4,/,/,i
Nc1cc(Cl)ccc1N1CCCCC1,2.7,-1.6,-6%,-5.7,-1.4,0.61,i
Cc1onc(-c2c(Cl)cccc2Cl)c1C(=O)N1CCN(Cc2ccccc2)CC1,0.4,1.6,/,-0.9,3.8,0.65,i
CC(C)C(=O)OCc1cn(-c2ccc(Cl)c(Cl)c2)nn1,2.4,0.4,3%,3.3,0.1,0.64,i
COc1ccccc1C(=O)N1c2ccccc2Sc2ccccc21,0.2,/,-1%,0.7,1.8,0.69,/
O=C(NCc1ccco1)c1ccccc1SCC(=O)N1CCCC1,0.0,1.6,/,/,1.4,0.7,i
O=[N+]([O-])c1ccc(NN=Cc2cc(Br)ccc2O)nc1,-0.9,1.3,-1%,/,5.5,0.67,i
O=C(CC(NC(=O)c1ccccc1)c1ccccc1)Nc1cccc2ccccc12 (stereo not drawn),-0.6,/,/,1.0,4.4,0.75,/
CCOC(=O)C(C#N)=C1CCC=C(C)C1,2.1,-1.6,-5%,/,/,/,i
CNc1cc(CSc2ccc(Cl)cc2)nc(C)n1,-0.1,-8.5,-3%,-1.3,3.4,0.69,i
CCC(C)[C@H](NC(=O)N1CC(=O)Nc2ccccc21)C(=O)N1CCC[C@H]1C(=O)O (stereo partly drawn),2.6,-1.4,/,4.8,0.7,0.74,i
Cc1ccc(S(=O)(=O)N2CCN(C(=O)COC(=O)c3oc4ccccc4c3C)CC2)cc1,2.1,-1.1,2%,1.4,5.3,0.69,i
CCOC(=O)CSc1nc2c(sc3ccc([N+](=O)[O-])cc32)c(=O)n1Cc1ccco1,4.1,/,/,0.1,1.1,0.69,/
CCOC(=O)C1(C)CCCN(C(=O)c2c(F)ccc(C)c2F)C1 (stereo not drawn),0.8,1.4,/,/,/,/,i
Cc1nnsc1C(=O)N/N=C/c1ccccc1,-5.1,-1.3,/,8.8,/,/,i
COC(=O)c1ccc(C2c3c(oc4ccc(Cl)cc4c3=O)C(=O)N2CCN2CCOCC2)cc1 (stereo not drawn),3.2,-12,/,-1.3,4.5,0.67,i
Brc1ccc(CNCC2CCCO2)cc1 (stereo not drawn),-1.5,-0.6,/,?,0.6,0.68,i
COc1cccc(OCC(=O)NC2CCS(=O)(=O)C2)c1 (stereo not drawn),-0.5,0.3,-7%,/,0.3,0.68,i
CCOc1ccc2nc(N/C(N)=N/C(=S)Nc3cccc(C)c3)nc(C)c2c1,1.6,-0.3,-17%,-1.3,1.6,0.7,i
CN1C(c2ccc(F)cc2)=CS/C1=C(\C#N)c1nnc2n1-c1ccccc1SC2,-3.0,-3.3,?,-0.6,10,0.67,i
COc1ccc(NC(=O)CNc2cc(S(=O)(=O)N3CCOCC3)ccc2NCC2CCCO2)cc1 (stereo not drawn),4.1,5.3,-5%,2.4,6.6,0.67,i

Three compounds out of the list above, ordered by the value under RanGTP-Imp inh, descending:
mol,HNF4A DNA FP,MLL AF4-AF9 inh,Vif TR-FRET,RanGTP-Imp inh,UCH37 DUB inh,FGF22 binding
COc1ccc(NC(=O)CNc2cc(S(=O)(=O)N3CCOCC3)ccc2NCC2CCCO2)cc1 (stereo not drawn),4.1,5.3,-5%,2.4,6.6,i
CN1C(c2ccc(F)cc2)=CS/C1=C(\C#N)c1nnc2n1-c1ccccc1SC2,-3.0,-3.3,?,-0.6,10,i
CNc1cc(CSc2ccc(Cl)cc2)nc(C)n1,-0.1,-8.5,-3%,-1.3,3.4,i

The main list resumes, repeating the two entries before the break.
smiles,HNF4A DNA FP,MLL AF4-AF9 inh,Vif TR-FRET,RanGTP-Imp inh,UCH37 DUB inh,Ecoli growth,FGF22 binding
CN1C(c2ccc(F)cc2)=CS/C1=C(\C#N)c1nnc2n1-c1ccccc1SC2,-3.0,-3.3,?,-0.6,10,0.67,i
COc1ccc(NC(=O)CNc2cc(S(=O)(=O)N3CCOCC3)ccc2NCC2CCCO2)cc1 (stereo not drawn),4.1,5.3,-5%,2.4,6.6,0.67,i
COc1ccc(OC)c2c1cc(C(=O)N[C@H](C(=O)N1CCC(C(=O)O)CC1)C(C)C)n2C,2.4,-2.9,-7%,2.8,2.0,0.7,i
CN(C)c1ccc(C(=O)NCC(c2cccs2)N2CCOCC2)cc1 (stereo not drawn),-0.7,2.3,/,/,2.6,0.67,i
COc1ccc([C@H]2CC(=O)C=C(C#CC(C)(C)C)C2)cc1,-1.9,-8.3,/,/,1.1,/,i
O=C(Cn1[nH]c(=O)c2ccccc2c1=O)OCC(=O)c1ccc(F)cc1,-4.1,-7.7,-9%,-2.8,5.7,0.69,i
Nc1nc(N)c2cc(Sc3cccc(C(F)(F)F)c3)ccc2n1,-1.2,1.3,-5%,/,/,/,i
O=C1C=C(c2ccc(C(=O)O)cc2)C[C@@H](c2ccc(F)cc2)C1,1.1,-1.1,/,/,1.8,/,i
Cc1cccc(NC(=S)NCCc2ccccn2)c1,4.2,-2.0,-4%,?,1.2,0.71,i
Cc1cc(C)cc(-n2c(=O)c3sccc3n(CC(=O)NCc3ccco3)c2=O)c1,0.6,/,?,-0.2,1.4,0.69,/
COc1ccc([C@@H]2CC=C(C(=O)O)[C@H](c3ccc(F)cc3)N2S(=O)(=O)c2ccccc2C)cc1,0.4,-0.5,/,/,5.6,/,i
FC(F)Oc1ccc(/C=N/NC(=S)Nc2cc(C(F)(F)F)ccc2Cl)cc1,2.9,/,-1%,0.5,/,/,/
Cc1ccc(-c2nc3c(Cl)cc(C(F)(F)F)cn3c2Cc2ccsc2)cc1,7.8,-3.1,/,/,/,/,i
COc1ccccc1NC(=O)N1CCC(NC(=O)C2CCCCC2)CC1,1.4,-5.4,-1%,-1.9,2.4,0.7,i
CCCCNS(=O)(=O)c1ccc(NC(=O)C2c3ccccc3Oc3ccccc32)cc1,-0.1,0.6,/,-2.2,3.5,0.69,i
CC(=O)Nc1ccc(NC(=O)C(C)OC(=O)C2CCCC2)cc1 (stereo not drawn),1.6,-1.1,-5%,6.5,0.3,0.67,i
Cc1cc(C)cc(NC(=O)CC2Oc3ccc(C)cc3NC2=O)c1 (stereo not drawn),-1.7,3.0,?,-4.4,0.5,0.7,i
O=C(Nc1cccc(Cl)c1)c1cnn2cccnc12,3.5,/,7%,-1.3,4.1,0.72,/
COc1cc(C(=O)OCCCN(C)C)cc(OC)c1OC,-1.2,-1.6,14%,2.9,3.9,0.65,i
COc1ccccc1N1CCN(C(=O)C2c3ccccc3Oc3ccccc32)CC1,0.2,/,-1%,-1.6,5.3,0.68,/
Cc1ccc(-n2ncc3c(=O)n(-c4ccc(C)c(C)c4)c(-c4ccco4)nc32)cc1,7.0,/,-2%,-0.3,-5.4,0.75,/
Cc1ccoc1C(=O)NCCNC(=O)c1occc1C,-1.7,-0.7,-5%,-0.1,-0.2,0.7,i
Cc1cccc(C2c3c(n(C)c(=O)n(C)c3=O)N=C3c4ccccc4C(=O)C32)c1 (stereo not drawn),-1.6,3.4,/,/,8.6,0.74,i
CC1CCCCN1C(=O)COc1ccc2ccc(=O)oc2c1 (stereo not drawn),1.9,0.3,/,1.5,-34,0.68,i
Cc1cc(C)c(NC(=O)C2CCCN2C)c(C)c1 (stereo not drawn),-1.6,/,-5%,1.7,4.4,0.68,/
CC1CCCCC1NC(=O)COC(=O)CN1C(=O)c2ccccc2C1=O (stereo not drawn),5.4,-0.5,/,/,4.2,0.69,i
Cc1ccc(N(C(=O)c2csnn2)C(C(=O)NC2CCCCC2)c2cccnc2)c(C)c1 (stereo not drawn),-5.2,-2.9,/,-1.4,0.8,0.67,i
COc1ccc(NC(=O)COC(=O)CN2C(=O)C3CC=CCC3C2=O)c([N+](=O)[O-])c1 (stereo not drawn),-2.9,0.1,/,/,3.8,0.68,i
Cc1cc(C)n2cnnc2n1,0.4,1.3,0%,2.8,-6.8,0.68,i
CC1Cc2ccccc2N1S(=O)(=O)c1cccc(C(=O)NCCCn2ccnc2)c1 (stereo not drawn),-0.5,10,-2%,12,1.4,0.65,i
COc1cc(NC(=O)c2ccccc2[N+](=O)[O-])ccc1NC(=O)c1cc2ccccc2o1,2.0,3.1,/,-1.1,2.5,0.65,i
O=[N+]([O-])c1ccccc1CNC(Cc1ccccc1)c1ccccc1 (stereo not drawn),-1.6,0.5,1%,-2.0,0.4,0.67,i
CCCCCCCCN1C(=O)[C@H](CC(=O)NCc2cccc(C(F)(F)F)c2)C[C@@]2(C(=O)OCC)CCC=C12,-0.5,0.5,/,/,/,/,i
O=C(CN1C(=O)c2ccccc2C1=O)NCc1ccncc1,3.9,/,4%,-0.6,1.2,0.74,/
COc1cc(NC(=O)C(=O)NNC(=O)C2CCCCC2)c(OC)cc1Cl,0.1,/,4%,1.0,0.6,0.68,/
CC(C)Cn1cc(-c2cncc3nccn23)cn1,2.6,0.7,/,/,/,/,i
Cc1n[nH]c(C)c1S(=O)(=O)N1CCCC(C(=O)Nc2ccc3c(c2)OCCO3)C1 (stereo not drawn),/,/,-5%,-3.1,0.4,0.67,/
CC1CCCCN1C(=O)c1ccc(C(=O)c2ccccc2)cc1 (stereo not drawn),1.5,-0.4,/,/,-2.3,0.67,i
COCCCNC(=O)CC1C[C@H](C(=O)N(C(C)C)C(C)C)[C@@]2(C)c3[nH]c4ccccc4c3CCN2C1=O (stereo partly drawn),2.2,-0.2,/,/,2.2,0.71,i
O=C(Nc1ccc2c(c1)C(=O)N(c1ccccc1)C2=O)C1CCCO1 (stereo not drawn),-0.7,/,?,-0.8,3.4,0.72,/
CN(CC(=O)Nc1ccccc1Br)c1ncnc2sccc12,2.2,3.4,20%,?,0.9,0.67,i
CC1CN(C(=O)N2CCCCC2)CCN1C(=O)N1CCCCC1 (stereo not drawn),0.8,-3.8,6%,2.1,0.3,0.71,i
COc1ccc(C(C(=O)NCC2CCCO2)N(C(=O)c2snc(C(N)=O)c2N)c2ccc(C)cc2)cc1OC (stereo not drawn),1.9,7.1,-1%,1.7,-59,0.7,i
Cc1ccc(C(=O)C2=C(O)C(=O)N(c3ncccn3)C2c2ccccc2F)o1 (stereo not drawn),-0.7,-1.9,/,?,10,0.72,/
CCn1nc(C)cc1C(=O)N1CCCC(N(C)CCc2ccc(OC)c(OC)c2)C1 (stereo not drawn),3.7,-0.4,4%,1.1,4.3,0.68,i
Cc1csc(-c2nc3ccccc3n2C(C)c2nc3ccccc3[nH]2)c1 (stereo not drawn),5.1,1.3,/,/,/,/,i
CC12CCC(C(=O)N3CCCCCC3)(OC1=O)C2(C)C (stereo not drawn),-0.9,/,-1%,2.9,1.6,0.78,/
CC(=O)NC(CC(=O)NCC(c1ccco1)N(C)C)c1ccccc1 (stereo not drawn),-0.6,/,11%,-0.5,-2.5,0.7,/
